# TAR Tat displ – TAR RNA-Tat peptide displacers, HIV-1, primary screen, biochemical, FRET, FAM/TAMRA-labeled Tat. HIV-1 TAR RNA, Tat peptide displacement FRET; active compounds read high. z-score (concentration not given with the values). 0.6% of 100,000 active;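 note: score is relative to mean and SD of negative controls; some compounds called inactive have numbers as strong as hits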
# CDC25B-CDK2 inh – primary biochemical HTRF screen for blockers of M-phase inducer phosphatase 2 binding to CDK2/cyclin A | P30305+P24941 | HTRF CDC25B-CDK2/CyclinA binding, anti-His/anti-Flag; active compounds read high | z-score (concentration not given with the values) | 0.72% of 94,000 active | AID 1259370, 2018;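 note: score is relative to mean and SD of negative controls; strong numbers were not always called active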
# Starred values were filed as active, the others as inactive; / = no result given.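 Rule for the calls: active = z-score from 3 up in half or more of its runs; inactive = the rest.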
# The first 16 records (preview)
SMILES,TAR Tat displ,CDC25B-CDK2 inh
COc1cccc(N2CCn3c2nc2c3c(=O)n(CC(=O)O)c(=O)n2C)c1,1.3,-2.9
O=C(Cn1ncc2ccc(Cl)cc21)NCc1cccs1,0.93,-1.9
CC1=C(c2ccc(C)c(C)c2)S(=O)(=O)N(Cc2ccc(C(=O)NC3CCCC3)cc2)C1=O,0.87,/
CCCN1CCN(CCCn2c(=S)[nH]c3ncccc3c2=O)CC1,/,-0.21
O=C1Nc2cc(Cl)ccc2Oc2ccc(S(=O)(=O)N3CCc4ccccc4C3)cc21,0.06,/
O=c1[nH]n(CCO)c(=O)c2ccccc12,/,-1.6
CCOC(=O)C1C(=O)NCC1c1ccccc1 (centres undefined),-0.13,-1.1
CC(=O)NC(C)Cc1c[nH]c2ccccc12 (centres undefined),1.1,-1.4
COc1ccc(C2CC(c3c(O)n(C)c(=O)[nH]c3=O)=Nc3ccccc3S2)cc1 (centres undefined),1.8,1.1
COc1ccc(OC)c(S(=O)(=O)c2ccc(Br)cc2)c1,/,-0.85
Clc1ccc(CCNc2cc(-c3ccccc3)nc3nncn23)cc1,-0.75,-2.1
O=C(NCc1ccccc1)N1CCC2(CC1)Nc1ccccc1-n1cccc12,0.44,/
CC(C)C(NS(=O)(=O)c1ccc2c3c(cccc13)C(=O)N2)C(=O)O (centres undefined),1.3,-0.58
CC1(C)CC2C1CCC1(C)OC2(C)CCC1O (centres undefined),0.87,/
COc1ccc(C2C(=O)N(C3CCCCC3)CC(=O)N2C2CCCCCCC2)cc1 (centres undefined),/,-0.86
CC(=O)O[C@@H]1CC2C(C)(C)[C@H](O)C[C@H](O)[C@]2(C)C2CC[C@@]3(C)C(=CC(=O)O[C@H]3c3ccoc3)[C@@]21C (some centres undefined),0.7,/

# The listing, previewed entries included:
SMILES,TAR Tat displ,CDC25B-CDK2 inh
COc1cccc(N2CCn3c2nc2c3c(=O)n(CC(=O)O)c(=O)n2C)c1,1.3,-2.9
O=C(Cn1ncc2ccc(Cl)cc21)NCc1cccs1,0.93,-1.9
CC1=C(c2ccc(C)c(C)c2)S(=O)(=O)N(Cc2ccc(C(=O)NC3CCCC3)cc2)C1=O,0.87,/
CCCN1CCN(CCCn2c(=S)[nH]c3ncccc3c2=O)CC1,/,-0.21
O=C1Nc2cc(Cl)ccc2Oc2ccc(S(=O)(=O)N3CCc4ccccc4C3)cc21,0.06,/
O=c1[nH]n(CCO)c(=O)c2ccccc12,/,-1.6
CCOC(=O)C1C(=O)NCC1c1ccccc1 (centres undefined),-0.13,-1.1
CC(=O)NC(C)Cc1c[nH]c2ccccc12 (centres undefined),1.1,-1.4
COc1ccc(C2CC(c3c(O)n(C)c(=O)[nH]c3=O)=Nc3ccccc3S2)cc1 (centres undefined),1.8,1.1
COc1ccc(OC)c(S(=O)(=O)c2ccc(Br)cc2)c1,/,-0.85
Clc1ccc(CCNc2cc(-c3ccccc3)nc3nncn23)cc1,-0.75,-2.1
O=C(NCc1ccccc1)N1CCC2(CC1)Nc1ccccc1-n1cccc12,0.44,/
CC(C)C(NS(=O)(=O)c1ccc2c3c(cccc13)C(=O)N2)C(=O)O (centres undefined),1.3,-0.58
CC1(C)CC2C1CCC1(C)OC2(C)CCC1O (centres undefined),0.87,/
COc1ccc(C2C(=O)N(C3CCCCC3)CC(=O)N2C2CCCCCCC2)cc1 (centres undefined),/,-0.86
CC(=O)O[C@@H]1CC2C(C)(C)[C@H](O)C[C@H](O)[C@]2(C)C2CC[C@@]3(C)C(=CC(=O)O[C@H]3c3ccoc3)[C@@]21C (some centres undefined),0.7,/
c1cc(-c2nn[nH]n2)ccc1CN1CCOCC1,0.51,-0.39
COc1ccc(C2C(C(=O)OC(C)C)=C(C)Nc3nc4ccccc4n32)cc1OC (centres undefined),2.1,-1.4
O=C(/C=C/c1ccc2c(c1)OCO2)Nc1ccc(Cl)cc1Cl,/,-2.1
CC(C)COc1ccc(C(=O)NCC2(c3ccccc3)CCCC2)cc1,/,-2
CC(Oc1ccc(Oc2ccc(C(F)(F)F)cc2)cc1)C(=O)NNC(=O)c1ccc([N+](=O)[O-])cc1 (centres undefined),/,0.79
O=C(c1cc(=O)c2ccccc2o1)N(Cc1ccco1)c1ccccn1,-1.6,-0.65
CCOc1ccc(CCNS(=O)(=O)c2cc(-c3cc(C)no3)ccc2C)cc1OCC,0.43,/
CCCCn1c(O)c(C2=Nc3ccccc3SC(c3ccc(C)s3)C2)c(=O)[nH]c1=O (centres undefined),2.7,-2.3
CC(C)CCNc1nccn(-c2ccc(Cl)cc2)c1=O,0.27,/
# Carrying on:
SMILES,TAR Tat displ,CDC25B-CDK2 inh
Cn1nnnc1NCc1ccc(-c2ccc(F)cc2)o1,-2.3,/
Cc1ccc(NS(=O)(=O)c2ccc(CN3C(=O)c4cccnc4C3=O)s2)nc1,-0.23,/
Cc1cccn2c(=O)c(C(=O)N3CCN(c4ncccn4)CC3)cnc12,-1.8,/
Cc1cc2c(cc1S(=O)(=O)N(CCN(C)C)Cc1cccs1)OCC(=O)N2,1.5,/
O=C1NC(/C=C\c2ccc3c(c2)OCO3)Nc2sc3c(c21)CCCC3 (centres undefined),0.67,-2.3
CSc1ccccc1NC(=O)c1cnn2c(C(F)(F)F)cc(-c3cccs3)nc12,1.5,/
CCCCNC(=O)NC1=C(C#N)C(C)(C)Cc2ccccc21,1.3,-0.67
COc1cccc(-c2noc(N3CCN(Cc4ccc5c(c4)OCO5)CC3)n2)c1,-0.22,/
COc1ccc(-c2cc3c(Cl)nccn3n2)cc1OC,-0.49,-1.9
CCCCCCCOC(=O)C1=C(C)Nc2ncnn2C1c1ccccc1Cl (centres undefined),0.81,-0.05
CCCS(=O)(=O)N1CCCc2ccc(NS(=O)(=O)c3ccccc3)cc21,0.66,/
Cc1ccc(CNC(=O)Cn2ccc3cc(S(=O)(=O)N4CCCC4)ccc32)o1,0.7,/
Cc1sc2c(c1C)c(=O)n(-c1ccc(F)cc1)c(=O)n2CC(=O)NC1CCCC1,/,-0.08
O=C(O)CCCCCN1C(=O)c2cccc3c(N4CCCCC4)ccc(c23)C1=O,-8.5,-0.44
COC(=O)CN1C(=O)NC(c2ccccc2)(C(C)(C)C)C1=O (centres undefined),0.63,-1.5
CCOC(=O)CNc1c(N(C)C2CCCCC2)c(=O)c1=O,1.8,-1.5
CCn1c(=O)[nH]c2sc3c(c2c1=O)CC(C)(C)OC3,0.49,0.16
CC1(C)Cc2ccccc2-c2[nH]c(=O)n(Cc3ccco3)c(=O)c21,1.4,-0.36
CC1=CS/C(=C(\C#N)C(=O)c2ccccc2Cl)N1c1ccccc1Cl,/,-1.5
Cc1cc(C(=O)n2cc(C)c(-c3cccs3)n2)c(C)o1,/,-0.61
c1ccc(-c2nnc(-c3csc(-c4cccnc4)n3)o2)cc1,/,-1
CC1(C)CC2(CC(C)(c3csc(N)n3)OC2=O)C(=O)O1 (centres undefined),0.55,0.23
Cn1c(=O)c2c(nc(Sc3ccc(N)cc3)n2C)n(C)c1=O,1.1,-1.2
NC(=O)c1nc(-c2ccccn2)nc2c1[nH]c(=O)n2-c1cccc(Cl)c1,0.64,/
CSc1nc(NCC(C)C)c(C#N)c(-c2ccccc2)n1,-1,-1.2
# Other records follow:
SMILES,TAR Tat displ,CDC25B-CDK2 inh
CCOc1ccc(Nc2nc3ccccc3c3nncn23)cc1,0.05,0.37
COC(=O)c1sccc1N/N=C(\C)c1ccc(NC(=O)C(Cl)Cl)cc1,/,-1.3
CC(=O)N1c2nc(-c3ccccc3)nn2C2(CCCCC2)[C@@H]2CCCC[C@@H]21,-1.2,-1.3
Cc1sc2ncn(CC(=O)NCCCC(=O)N3CCCC3)c(=O)c2c1C,/,0.85
CCN(C(=O)c1noc2c1COc1ccccc1-2)c1ccc(F)cc1,-0.41,-0.47
O=S1(=O)CC(O)C(NC2CCNCC2)C1 (centres undefined),2.4,-0.74
Cc1ccc(-n2ccn3c(=O)[nH]nc3c2=O)cc1,-0.76,-2.1
COc1ccc(-c2noc(NCc3cccs3)n2)cc1,-0.06,/
CCOC(=O)C1C(=O)CC(C)(O)C(C(=O)OCC)C1c1ccc(Br)o1 (centres undefined),/,-0.42
NC(=O)C1(N2CCCCC2)CCN(C2OC(=O)c3ccccc32)CC1 (centres undefined),/,-0.48
Cn1c(=O)c2c(nc(Sc3nnc(N)s3)n2C)n(C)c1=O,0.3,1.1
c1nc(-c2ccc3c(c2)OCO3)no1,1.5,-0.96
Cc1nn(C)c(C)c1CCNS(=O)(=O)c1ccc2c(c1)C(C)(C)C(=O)N2C,-0.38,/
CCCCCCn1c(CN2CCN(C(=O)c3ccco3)CC2)nc2c1c(=O)n(C)c(=O)n2C,1.7,-0.96
Oc1ccccc1-c1nc2c3c4c(sc3ncn2n1)CCCC4,2.8,1.4
CCOc1ccc(/C=C/c2nc(C#N)c(N3CCOCC3)o2)cc1,0.99,-0.49
CCOC(=O)c1c(N)n(-c2ccc(OC)cc2)c2nc3ccccc3nc12,/,1.4
O=c1c2nccnc2nc(SCc2cccc(F)c2)n1Cc1ccco1,1.4,-0.37
O=C1CC(C(=O)N2CCc3ccccc3C2)CN1CCc1c[nH]c2ccc(Cl)cc12 (centres undefined),0.49,4.1
O=C(Nc1ccc(N2CCOCC2)cc1)C1=Cc2cc(Br)ccc2OC=C1,0.39,-1.5
Cc1ccc(C2Nc3ccc4ccccc4c3C3=C2C(=O)CC(C)(C)C3)s1 (centres undefined),/,-1.9
COc1cc([N+](=O)[O-])ccc1-n1cccc1,/,-1.4
CCN(CC)CCCNC(=O)c1ccc(N2CCc3ccccc32)s1,2.2,/
Cc1ccccc1C1C2=C(CC(C)(C)CC2=O)Nc2ncnn21 (centres undefined),0.76,/
COc1ccc(C(C)=O)cc1CSCC(=O)Nc1ccc(Cl)cc1,/,-1.4
# Remaining list, next part
SMILES,TAR Tat displ,CDC25B-CDK2 inh
NC(=O)C1CCN(c2ncnc3[nH]ncc23)CC1,1.9,/
CC1CC2(CC(C)(C(=O)CSc3nc4ccccc4s3)OC2=O)C(=O)O1 (centres undefined),/,1.5
Cc1ccc(OCc2nc(-c3ccc(Cl)cc3)no2)cc1C,/,-1
O=C(O)CCC(=O)NCC1OCCc2ccccc21 (centres undefined),1.1,-1.2
COc1ccc(N(CC(=O)Nc2ccc(F)cc2)C2=NC3CS(=O)(=O)CC3S2)cc1 (centres undefined),1,1.4
Cc1ccc(Cl)c(NC(=O)Nc2csc3c2CCCC3)c1,0.1,-0.96
CCOC(=O)C1=C(C)NC(=O)NC1c1ccc(OC)cc1 (centres undefined),1.9,-1.4
CC1(C)CC(=O)C2=C(C1)Nc1nc(-c3cccnc3)nn1C2c1ccc(Cl)cc1 (centres undefined),1.5,0.73
Clc1ccc(-c2cc(NC3CCCCC3)n[nH]2)cc1,2.5,1.9
COC(=O)c1sc(N2C(=O)c3oc4ccc(F)cc4c(=O)c3C2c2ccc(OC)cc2)nc1C (centres undefined),0.13,-0.81
COc1ccc(S(=O)(=O)c2cnc3ccc(F)cc3c2Nc2ccc(OC)c(OC)c2)cc1,-1.1,-1.3
CN1CCC=C(C(=O)N/N=C/c2cccnc2)C1,/,1.4
CCc1cc(Nc2ccc(F)cc2C)n2ncnc2n1,-0.05,-0.91
O=C(NC1CCCC1)c1csc2c1CCCCC2,0.47,-1.7
CC(C)Cn1c(NCCN(C)C)nc2c1c(=O)[nH]c(=O)n2C,1.9,-1.1
Cc1sc2ncn(CC(=O)N3CCCCCC3)c(=O)c2c1S(=O)(=O)N1CCN(C)CC1,/,19*
Fc1ccccc1-c1noc(NCc2ccc(Cl)cc2)n1,-0.27,/
COc1ccc(C2/C(=C(\O)c3ccc(Cl)cc3)C(=O)C(=O)N2c2cccnc2)c(OC)c1 (centres undefined),2.5,-6.3
CC1CC(=O)Nc2cc(S(=O)(=O)NC3CCCC3)ccc2S1 (centres undefined),0.37,/
CC(C)c1ccc(S(=O)(=O)N2CCN(c3nc4ccccc4n4cccc34)CC2)cc1,0.4,0.24
O=C(O)CCC12CC3CC(CC(Br)(C3)C1)C2,/,-0.15
CSC(=CC(=O)c1ccc(Oc2ccccc2)cc1)SC,/,-0.77
CC1(C)CC(=O)C2=C(C1)Nc1ccccc1NC2c1cccc2ccccc12 (centres undefined),/,13*
COC(=O)c1cc2sc3ccccc3c2s1,/,-0.27
CCOC(=O)c1cn[nH]c1S(=O)(=O)NCc1ccccn1,0.56,/
# Other entries:
SMILES,TAR Tat displ,CDC25B-CDK2 inh
O=C(CSc1nnc(-c2ccco2)n1-c1ccccc1)c1c[nH]c2ccccc12,0.63,-0.53
CCC1(C)CC(=O)c2c(ccc3oc(C(=O)Nc4ccc(Br)cn4)c(C)c23)O1 (centres undefined),2.3,-2.2
COC(=O)C1=C(C)NC2=C(C(=O)c3ccccc32)C1c1ccccc1OCc1ccccc1F (centres undefined),-0.05,-0.66
CNC(=O)c1c(NC(=O)c2cc(-c3ccccc3)on2)sc2c1CCCC2,1.6,-2
Cc1cccc2cc3c(nc12)N(S(C)(=O)=O)CC3,-2,-1.9
Cc1cc(S(=O)(=O)[C@H]2CS(=O)(=O)C[C@@H]2NCCc2c[nH]c3ccccc23)ccc1F,0.22,-0.85
CCSc1nc2c(c(=O)[nH]1)C(c1cccnc1)C(C(=O)OC)=C(C)N2 (centres undefined),/,-0.88
COCCCN=C(Nc1cc(C)c(C)cc1C)SC,/,0.14
COc1ccc(-c2nc(SCCOc3ccc(Cl)cc3)n3[nH]c(=O)cc3n2)cc1,0.3,/
CCOC(=O)c1c(NC(=O)c2nn(-c3ccc(F)cc3)ccc2=O)sc2c1CCCC2,0.71,1.2
CS(=O)(=O)N1CCC(n2nc(-c3ccccc3)oc2=O)CC1,-0.19,-2
CC(C)Oc1ccc(COC2C(C3COC(C)(C)O3)OC3OC(C)(C)OC32)cc1 (centres undefined),/,-0.72
CCCN1CCN(C(=O)C2CCCN(c3ncnc4c3nc3n4CCCCC3)C2)CC1 (centres undefined),0.6,/
CCn1nc(C)c(CNC(=O)Nc2ccsc2C(=O)OC)c1C,-1.5,/
COc1c(Br)cc(C#N)cc1Br,/,-1.2
COc1cc(C2Nc3ccccc3S(=O)(=O)N2Cc2ccccc2)cc(OC)c1OC (centres undefined),/,-1.1
CCOC(=O)C(=O)N1CC2(C)CNCC(C)(C1)C2=O,0.22,-1.4
